UUG fidelity – yeast start codon fidelity modulation. S. cerevisiae UUG-firefly luciferase reporter, luminescence/redox ratio. activity score, % at 18.7 µM. 0.13% of 350,000 active;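 active = replicate mean at a twofold rise or more, about +100% in these data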;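 note: firefly luciferase made from a UUG start codon reports start codon fidelity; reporter light over untreated wells divided by growth signal over untreated wells; some hits fall short of that in this replicate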
Env fusion inh – blocks HIV Env-driven cell-cell fusion. HeLa-JRFL Env/CEM21 cell fusion, luciferase. inhibition, % at 12.3 µM. 1.1% of 360,000 active. AID 651610;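 active = mean replicate inhibition score of at least 50 and every replicate individually at or above 50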;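 note: 0% = plate neutral controls and 100% = maraviroc near 300 nM; one replicate is shown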
PABP FP inh – blocks human PABP binding to poly(A) RNA; P11940; fluorescence polarization; inhibition, % at 35 µM; 1% of 290,000 active;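 active = 50% or more with normal probe brightness, or confirmed in later tests; about a fifth of its hits are not listed in these tables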;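 note: calls also rest on retests at 20 µM and on dose response follow-up; controls were probe without protein and protein plus probe with vehicle; some compounds called inactive have numbers as strong as hits; many hits fall short of the cut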
Target sequence (P11940 whole entry, looked up): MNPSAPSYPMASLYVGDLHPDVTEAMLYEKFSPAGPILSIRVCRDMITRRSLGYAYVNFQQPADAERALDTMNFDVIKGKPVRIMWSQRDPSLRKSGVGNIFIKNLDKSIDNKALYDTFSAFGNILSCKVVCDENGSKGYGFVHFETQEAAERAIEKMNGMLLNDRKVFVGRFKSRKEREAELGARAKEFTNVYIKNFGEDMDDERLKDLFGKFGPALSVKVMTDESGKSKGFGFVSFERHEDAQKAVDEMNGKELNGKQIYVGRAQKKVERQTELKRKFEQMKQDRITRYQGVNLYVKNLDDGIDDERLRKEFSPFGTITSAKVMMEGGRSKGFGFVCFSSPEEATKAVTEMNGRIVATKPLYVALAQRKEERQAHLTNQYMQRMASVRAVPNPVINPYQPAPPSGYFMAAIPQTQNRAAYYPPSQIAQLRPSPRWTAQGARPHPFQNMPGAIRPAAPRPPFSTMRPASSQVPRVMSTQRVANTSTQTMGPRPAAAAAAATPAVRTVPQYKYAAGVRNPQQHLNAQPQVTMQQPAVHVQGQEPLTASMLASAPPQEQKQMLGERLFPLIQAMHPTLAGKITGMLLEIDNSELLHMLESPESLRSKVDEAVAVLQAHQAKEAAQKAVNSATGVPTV
MT1-MMP act inh – MT1-MMP (human) activation inhibition | P50281 | HT1080 RFP-PRO-GFP cells, GFP/RFP ratio fluorescence, overnight; percent of plate control window, DMSO zero | GFP/RFP ratio change, % at 20 µM | 0.061% of 360,000 active | AID 651647;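 active = GFP/RFP ratio change of at least 30% with cell ATP level not reduced by more than half and red fluorescence within 50% of control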; note: strong numbers were not always called active
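Material: RFP-PRO-GFP reporter HT1080 cells. Dosing: single-point 20 µM compound, 1% DMSO. Controls: DMSO and RFP-L50D-GFP cell wells. Timing: cells overnight before dosing, compound overnight, 37 °C, 5% CO2. Measure: GFP/RFP fluorescence ratio.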
eIF4H inh – inhibitors of RNA binding by human eIF4H | AID 2012 | inhibition, % at 35 µM | Q15056 | 0.94% of 290,000 active | eIF4H fluorescence polarization binding assay;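 active = 50% or more with normal probe brightness, or confirmed in later tests; about a fifth of its hits are not listed in these tables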;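 note: calls also rest on retests at 20 µM and on dose response follow-up; 0% = protein and probe with vehicle and 100% = probe without protein; strong numbers were not always called active; many hits fall short of the cut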
Rce1 inhib – blocks yeast Ras-converting enzyme | Q03530 | yeast membranes, quenched prenylated peptide cleavage fluorescence | calls only | 0.27% of 290,000 active;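 active = fall in fluorescence gain of 50% or more versus controls, with final raw signal at or below 3038400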;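 note: plate controls were neutral control wells for no effect and wells lacking membranes for full effect; tested at 10 µM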
CSC inhib – blocks cancer stem cells | cancer stem cell-like cells viability, luminescence | inhibition, % at 7.5 µM | 1.1% of 300,000 active | AID 2717;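 active = mean at 75% or more and at least half the replicates too; tested in HMLE shEcad cells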;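 note: 0% = median of negative and 100% = median of positive control wells; the first replicate is given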
eIF4H inh retest – recorded beside eIF4H inh, whose call it bears; inhibition, %; compound at 20 µM; confirmation average;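 mean of two retest wells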
PABP FP inh retest – further read-out of PABP FP inh, marked with its call; inhibition, %; compound at 20 µM; confirmation repeats;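 mean of two retest wells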
MT1-MMP act inh RFP – further read-out of MT1-MMP act inh, marked with its call; RFP signal change, %; measured here: RFP expression control read;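 0 = vehicle wells; hits needed this value within 50% of zero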
* = called active by the depositor; i = inactive; . = no result given; + = active, no number; & = joins results of further samples; [ ] = another dose, or the depositor's remark.

SMILES	UUG fidelity	Env fusion inh	PABP FP inh	MT1-MMP act inh	MT1-MMP act inh RFP	eIF4H inh	Rce1 inhib	CSC inhib	others
CC(Sc1nnc(-c2cccnc2)o1)C(=O)NC1CCCCC1 (stereo unspecified)	-9	9	.	1	5	.	.	-19
CCCCN1C(N)=NC[C@@H]1c1ccccc1	5	-6	.	0	1	.	i	-12
C=Cc1ccc(Cn2c(=O)n(C)c(=O)c3sccc32)cc1	-11	20	9	4	-22	-10	i	-8
O=C(Nc1ccc(CN2CCCCC2)cc1)c1cccc(F)c1	-15	-10	-1	-2	-1	-5	i	15
COc1cccc(C2CC(c3cccs3)=NN2C(=O)CSC2=NN3CCCC(=O)N=C3S2)c1OC (stereo unspecified)	0	27	-4	3	1	3	i	0
Oc1c(CN2CCCC(C(F)(F)F)C2)cc(Cl)c2ccccc12 (stereo unspecified)	-7	5	-6	-11	4	-6	i	29
Nc1nonc1C(=O)OCC(=O)N1CCCCC1	-27	.	-3	5	5	1	i	-10
O=C(OCCN=C1NS(=O)(=O)c2ccccc21)c1ccccc1F	-25	-1	5	-2	-2	-16	.	-12
COc1ccccc1Nc1ncccc1C(=O)NCc1ccccc1	-5	28	8	3	0	-1	i	-14
O=C(CSc1nncs1)NNC(=O)c1ccco1	-17	-6	.	0	1	.	.	-21
O=[N+]([O-])c1ccc(S(=O)(=O)NCC(c2cccnc2)N2CCc3ccccc32)cc1 (stereo unspecified)	-6	3	.	-2	4	.	i	1
CCOc1ccc(CN2CCN(CC(O)Cn3c4ccccc4c4ccccc43)CC2)cc1 (stereo unspecified)	4	-47	6	-1	0	9	i	9
Fc1ccc(Oc2ncccn2)c(F)c1	-10	6	-2	1	3	-5	i	-8
Cc1cc(C)n(-c2nncn2NC(=O)c2ccc(Cl)cc2O)n1	-2	.	0	-2	0	-10	i	13
Cc1c(NS(=O)(=O)c2ccc(Br)cc2)c(=O)n(-c2ccccc2)n1C	19	3	-2	0	-1	-4	i	-6
CCOC(=O)C1CCCN(C(=O)c2cc3c(=O)n4ccccc4nc3s2)C1 (stereo unspecified)	-6	-10	0	-2	4	-7	i	-7
O=C(CSc1ccsc1[N+](=O)[O-])N1CCCCC1	.	23	-4	-1	1	-1	i	10
O=C(NCCCCNC(=O)c1ccccn1)c1ccccn1	-4	2	-6	0	1	5	i	-17
CS(=O)(=O)N1CCC(C(=O)NCCN2CCN(Cc3ccccc3)CC2)CC1	-20	.	4	-3	0	-1	i	-20
CC(C)CC1(C(=O)NCc2ccccn2)C=CCN1C(=O)c1ccccc1 (stereo unspecified)	-18	-18	-6	3	3	-6	i	-3

The closing 3 entries of the section above are carried over, then new ones follow:
SMILES	UUG fidelity	Env fusion inh	PABP FP inh	MT1-MMP act inh	MT1-MMP act inh RFP	eIF4H inh	Rce1 inhib	CSC inhib	others
O=C(NCCCCNC(=O)c1ccccn1)c1ccccn1	-4	2	-6	0	1	5	i	-17
CS(=O)(=O)N1CCC(C(=O)NCCN2CCN(Cc3ccccc3)CC2)CC1	-20	.	4	-3	0	-1	i	-20
CC(C)CC1(C(=O)NCc2ccccn2)C=CCN1C(=O)c1ccccc1 (stereo unspecified)	-18	-18	-6	3	3	-6	i	-3
Cc1ccc(Nc2c3c(nc4ncnn24)CC(C)CC3)cc1 (stereo unspecified)	-10	48	-8	3	2	-7	i	33
Cc1ccc(S(=O)(=O)N2CCC(C(=O)OCC(=O)N3CCCCC3C)CC2)cc1C (stereo unspecified)	.	5	.	8	3	.	i	13
Cc1nc2ccccc2nc1OCc1cccc([N+](=O)[O-])c1	-15	17	4	2	-3	-7	i	4
CCOC(=O)C1CCN(C(=O)CNC(=O)c2nn(-c3ccc(OC)cc3OC)c(=O)c3ccccc23)CC1	18	10	-6	0	1	-2	i	.
CNC(=O)OCc1snc(-c2ccccc2)c1COC(=O)NC	-23	-11	.	1	0	.	.	.
Cc1ccc(-c2nc3ncccc3o2)cc1NC(=O)c1sc2ccccc2c1Cl	-10	.	-14	8	-1	-9	.	70
CCCN(CC(=O)c1cc(C)n(C)c1C)S(=O)(=O)c1cccc(C(F)(F)F)c1	-14	.	-6	-5	-12	-15	.	1
COc1ccc(CCN2C(=O)CC(Cc3ccccc3)C2=O)cc1OC (stereo unspecified)	.	9	-2	3	0	5	i	-5
Cc1ccc(S(=O)(=O)N2CCN(C(=O)COC(=O)c3ccccn3)CC2)c(C)c1	.	.	.	-2	1	.	i	-1
CC(C)N(C(=O)CSc1nc2c([nH]1)c(=O)n(C)c(=O)n2C)c1ccccc1	1	-35	2	-2	1	-5	i	14
CC(C)CNC(=S)NNC(=O)c1ccc2c(c1)OCO2	.	-18	8	0	1	-9	i	-8
CC1CCCC(NC(=O)c2ccc(COc3ccccc3)o2)C1C (stereo unspecified)	-7	.	6	0	-3	5	i	23
Cc1nn2c(-c3ccccn3)ccnc2c1Br	.	-21	-12	4	4	-15	i	15
Cc1ccccc1NC(=O)CCN1CCc2ccccc2C1	-22	-18	0	1	1	4	i	.
COc1ccc(S(=O)(=O)Nc2ccc3c(c2)C(=O)N([C@H](C)CO)C[C@H](C)[C@@H](CN(C)C(=O)Nc2ccc(C(F)(F)F)cc2)O3)cc1	-8&-4	9[16.7 µM]	.	4	2	.	.	.
COc1ccc(OCC(O)CNC(=O)c2cccs2)cc1 (stereo unspecified)	.	5	-3	-6	0	-6	i	-1
O=C(/C=C/Nc1nccs1)C(F)(F)Cl	-12	-11	12	-5	3	37	i	2
COc1ccccc1OCCCOc1cccc(/C=C2\SC(=O)NC2=O)c1	-14	-2	1	2	-12	-6	i	59
CCOc1cc(NC(=S)NCc2ccco2)c(OCC)cc1NC(=O)C1CC1	.	-22	-3	5	3	19	i	-14
COc1ccc(N2CCN(Cc3nc4c(c(=O)n(C)c(=O)n4C)n3Cc3cccc(C)c3)CC2)cc1	8	-59	9	-10	-7	11	i	-30

5 compounds drawn at random from those above, as already listed:
SMILES	UUG fidelity	Env fusion inh	PABP FP inh	MT1-MMP act inh	MT1-MMP act inh RFP	eIF4H inh	Rce1 inhib	CSC inhib	others
CC1CCCC(NC(=O)c2ccc(COc3ccccc3)o2)C1C (stereo unspecified)	-7	.	6	0	-3	5	i	23
CC(C)N(C(=O)CSc1nc2c([nH]1)c(=O)n(C)c(=O)n2C)c1ccccc1	1	-35	2	-2	1	-5	i	14
CCCN(CC(=O)c1cc(C)n(C)c1C)S(=O)(=O)c1cccc(C(F)(F)F)c1	-14	.	-6	-5	-12	-15	.	1
Cc1ccc(S(=O)(=O)N2CCC(C(=O)OCC(=O)N3CCCCC3C)CC2)cc1C (stereo unspecified)	.	5	.	8	3	.	i	13
CCOc1cc(NC(=S)NCc2ccco2)c(OCC)cc1NC(=O)C1CC1	.	-22	-3	5	3	19	i	-14

The listing continues:
SMILES	UUG fidelity	Env fusion inh	PABP FP inh	MT1-MMP act inh	MT1-MMP act inh RFP	eIF4H inh	Rce1 inhib	CSC inhib	others
Cc1nn(CCCC(=O)NCCCN2CCN(C)CC2)c(=O)c2c1sc1ccccc12	-3	8	-2	1	2	-6	i	5
COc1cccc(C(=O)NNC(=O)C(=O)N2CCCCC2)c1	-4	6	3	4	7	-3	i	-3
COc1ccc2nc(Cl)c(C3CC(c4ccco4)=NN3C(=O)CCC(=O)O)cc2c1 (stereo unspecified)	.	.	4	7	1	92*	i	-1	eIF4H inh retest=79*;PABP FP inh retest=24
O=C(N/N=C/C=C\c1ccccc1[N+](=O)[O-])c1cccnc1	-12	-22	-3	4	5	-16	i	-8
COc1ccc([C@@H]2[C@@H]3C(=O)N(C(C)(C)C)C(=O)[C@@H]3[C@]3(C)C(=O)N(c4cccc(Br)c4)C(=O)N23)cc1	-8	.	6	-5	-9	7	i	-6
CC(NC(=O)COC(=O)C1=COCCO1)C12CC3CC(CC(C3)C1)C2 (stereo unspecified)	.	4	4	0	2	-1	i	17
O=C(CNC(=O)C(c1ccccc1)c1ccccc1)N/N=C\c1ccc(C(=O)O)cc1	-38	-4	10	1	5	2	i	5
COc1ccc(N2CC(C(=O)Nc3nnc(SCC(=O)NCc4ccco4)s3)CC2=O)cc1 (stereo unspecified)	-5	-15	11	-2	-1	44	i	-13
COc1ccc(NC(=O)CN(C)CC(=O)NC2CCC(C)CC2)cc1 (stereo unspecified)	-13	.	.	0	3	.	.	-11
COc1ccc(OCC(=O)N(Cc2ccco2)C2CCS(=O)(=O)C2)cc1 (stereo unspecified)	-6	9	3	0	3	-3	i	-12
CCN(Cc1ccccc1)C(=O)c1cc(-c2ccc(OC)c(OC)c2)nc2ccccc12	-12	17	35	-1	-2	3	i	20
N/C(=N\OC(=O)N1CCOCC1)c1ccc(Br)cc1	.	-13	8	-13	-21	-1	i	19
COc1ccc(NC(=O)c2oc3ccccc3c2NC(=O)c2ccc3c(c2)OCO3)cc1	-2	-27	0	-8	-5	-8	i	-3
Cc1ccccc1NS(=O)(=O)c1c(C(=O)N2CCCCCC2)c(C)n(C)c1C	-2	9	3	-4	-4	-3	i	-12
NC(=O)C1CCN(C(=O)NC2CC(=O)N(c3ccc4c(c3)OCCO4)C2)CC1 (stereo unspecified)	-7	-8	.	-1	-3	.	i	-3
CCOC(=O)N1CCN(C(=O)c2ccc3c(=O)n(CCC4=CCCCC4)c(=O)[nH]c3c2)CC1	-11	7	-10	3	-9	-6	i	-1
Cc1cc(NC(=O)CCC(=O)N(C2CC2)C2(C(=O)NC3CCCC3)CCC(C)CC2)no1 (stereo unspecified)	-4	100*	14	-3	-1	0	i	-9
CCOCc1nnc(NC(=O)CSc2ccccc2)s1	-10	-1	2	-2	1	8	i	-2
Cc1ccc(CS(=O)(=O)CCC(=O)NCC2CCCO2)cc1 (stereo unspecified)	0	.	0	3	5	4	i	-4
CCC(C)n1c(=N)c(C#N)cc2c(=O)n3cccc(C)c3nc21 (stereo unspecified)	.	8	8	-2	-2	-1	i	-3
O=C(c1ccccc1)N1CCCCC(Sc2nnnn2-c2ccccc2)C1=O (stereo unspecified)	17	-9	1	10	1	9	i	-7
O=c1cc(-c2ccccc2)nc2nc(-c3ccco3)[nH]n12	-22	.	12	-6	10	3	i	-10
O=S(=O)(c1cccc(-c2n[nH]c(=S)n2Cc2ccccc2)c1)N1CCOCC1	-15	7	1	1	2	-7	i	-20
CN(C)C(=O)c1ccc(COc2ccccc2Br)o1	14	.	5	2	1	-3	i	15
Cc1cc(C(=O)OC(C(=O)Nc2ccc(C)c(Cl)c2)c2ccccc2)c(C)o1 (stereo unspecified)	.	13	9	-4	-7	-6	i	54
CCOC(=O)CNC(=O)CSc1nc(C)cc(C)c1C#N	-4	-23	-9	-4	0	-12	i	-4
CC1=C(C)CC(C(=O)N2CCN(Cc3ccc4c(c3)OCO4)CC2)C(C(=O)O)C1 (stereo unspecified)	.	-9	10	0	3	2	i	2
OCCN(CCO)c1ccc2ccccc2c1	-22	8	3	4	0	0	+	-15
CSc1ccccc1NC(=O)CN(C)S(=O)(=O)c1ccc(F)cc1	-6	-14	-1	0	-1	-17	i	-3
Cc1cc(/C=N\O)c(C)n1-c1ccncc1	-21	.	6	-1	7	-14	i	3
CN(C)Cc1ccc(CNC(=O)COc2ccc3ccccc3c2)cc1	-5	11	0	2	5	-8	i	28
COc1cc(/C=C/C(=O)O)cc(S(=O)(=O)N(C)CCO)c1OC	-3	.	15	0	1	-6	i	3
CC(=O)Nc1ccc(S(=O)(=O)NC(C)C(=O)NCC(c2ccco2)N(C)C)cc1 (stereo unspecified)	-21	-7	.	0	4	.	.	.
O=C(O)c1cccc2c1C(=O)c1ccc(N3CCCCC3)cc1S2(=O)=O	-10	-13	.	-37	-2	.	.	-22
CCCN(C#N)c1nc(NCC)nc(NC(C)C)n1	-17	.	-10	3	2	-6	i	3
Fc1ccc(OCCCCCCN2CCCC2)cc1	1	.	-9	7	-14	-3	i	12
CC(C)(C)c1ccc(OCC(=O)N2CCN(C=O)CC2)cc1	-9	.	-3	0	0	-10	i	-11
